Screening data (PubChem BioAssay)
TAR Tat displ: TAR RNA-Tat peptide displacers, HIV-1, primary screen, biochemical, FRET, FAM/TAMRA-labeled Tat; actives 0.6% (n = 100,000); HIV-1 TAR RNA, Tat peptide displacement FRET; hits give high values; z-score (no concentration beside the values);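 note: score is relative to mean and SD of negative controls; some compounds called inactive have numbers as strong as hits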
CDC25B-CDK2 inh: primary biochemical HTRF screen for blockers of M-phase inducer phosphatase 2 binding to CDK2/cyclin A; HTRF CDC25B-CDK2/CyclinA binding, anti-His/anti-Flag; hits give high values; z-score (test concentration not listed); actives 0.72% (n = 94,000);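 note: score is relative to mean and SD of negative controls; strong numbers were not always called active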
Active calls of the source: *; . = no result given.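 Rule for the calls: active = z-score from 3 up in half or more of its runs; inactive = the rest.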

Every second line gives: TAR Tat displ	CDC25B-CDK2 inh
- Cn1cc(S(=O)(=O)N2CCOCC2)cc1C(=O)NCc1ccco1
→ 1.39	.
- COc1cc2c(cc1OC)C(C)N(C(=O)c1snnc1C)CC2 (stereo not drawn)
→ .	-1.58
- CC(=O)N(CC1OC(c2ccc3c(c2)OCO3)=NN1C(C)=O)c1ccccc1 (stereo not drawn)
→ 1.2	.
- Clc1cccc(CN2CCN(Cc3ccncc3)CC2)c1
→ 0.43	-0.14
- COc1ccc2oc(C(F)(F)F)cc(=O)c2c1
→ 0.47	0.31
- O=C(NC1CCCCC1)c1nc(CS(=O)(=O)c2ccccc2)no1
→ -0.71	0.15
- COC(=O)C1=C(C(=O)c2ccccc2)C(c2cccs2)n2nnnc2N1 (stereo not drawn)
→ -0.49	-1.43
- Cc1ccc2c(c1)C(O)(CC(=O)c1cc(C)sc1C)C(=O)N2 (stereo not drawn)
→ 2.1	.
- CC(C)(C)C(=O)NC(=O)Nc1ccccc1C(F)(F)F
→ .	-1.78
- C(=N\Nc1ccccc1)/c1cccnc1
→ .	-0.25
- N#Cc1c(NC(=O)COCc2cc(-c3cccs3)on2)sc2c1CCC2
→ 0.03	.
- C/C(=N\N=C(/C)c1cccc([N+](=O)[O-])c1)c1cccc([N+](=O)[O-])c1
→ .	-1.96
- CC(C)(C)SCCNC(=O)C(C)(C)C
→ .	-1.52
- O=C(Cn1cnc(S(=O)(=O)N2CCc3ccccc32)c1)NC1CCCC1
→ -0.08	.
- CCOC(=O)C1C2C=CC3(CN(Cc4ccco4)C(=O)C13)O2 (stereo not drawn)
→ 1.18	-1.94
- COC(=O)N1C2C=CC(C2)C1(C(F)(F)F)C(F)(F)F (stereo not drawn)
→ .	-1.07
- Cc1ccc(N2CC(O)=C(c3nc4ccccc4c(=O)[nH]3)C2=N)cc1
→ -0.49	-0.96
- O=C(CN1Cc2ccccc2C1=O)NCCN1CCOCC1
→ 0.45	.
- CCN(CC)CCN1C(=O)C(=O)c2ccccc21
→ 2.16	-1.51
- COc1ccc(-c2ccc(NS(=O)(=O)c3cc(C)cc(C)c3)cc2)nn1
→ 0.97	.
- CCOC(=O)c1c(C)oc2nc(C)nc(NCCN3CCCc4ccccc43)c12
→ -0.73	.
- COCCn1nnc2cc(S(=O)(=O)N3CCCC(C(=O)O)C3)ccc21 (stereo not drawn)
→ 2.78	-1.68
- Cc1c(Nc2ncnc3c2cnn3C)c(=O)n(-c2ccccc2)n1C
→ 0.76	.
- CCOc1cc(C2c3c(-c4cc(C)ccc4O)n[nH]c3C(=O)N2Cc2ccco2)ccc1O (stereo not drawn)
→ -1.44	0.74
- O=C(COC(=O)c1cnccn1)c1ccc(Br)cc1
→ 1.66	0.57
- CCOc1ccc2cc(S(=O)(=O)N3CCOCC3)ccc2c1
→ 0.04	-11.2
- CC(C)c1nnc(N2C(=O)c3oc4ccccc4c(=O)c3C2c2ccccc2)s1 (stereo not drawn)
→ -0.15	0.53
- O=C(c1nnc(Cc2ccc(F)cc2Cl)o1)N1CCCC1
→ 1.53	-0.71
- O=C(CCc1nnc2ccc(NCc3ccco3)nn12)N1CCCC1
→ 1.81	.
- Cc1ccc(/C(O)=C2\C(=O)C(=O)N(CCCN3CCOCC3)C2c2ccc(F)cc2)cc1 (stereo not drawn)
→ 1.39	-1.8
- C=CCn1nc(SCC(=O)OCC)n2c(=O)c3c(nc12)-c1ccccc1CC3(C)C
→ 0.16	-0.1
- COc1ccccc1-c1noc2ncnc(Nc3ccc4c(c3)OCCO4)c12
→ -0.26	.
- O=C(CSc1nc(-c2cccc(F)c2)nc2cc(=O)[nH]n12)N1CCCC1
→ 1.22	.
- COCCOC(=O)c1c(C)oc2cc(Br)c(OCc3cccc(OC)c3)cc12
→ -1.06	-0.35
- Cc1cc(N2CCN(c3ccccn3)CC2)n2nc(C)c(-c3ccc(F)cc3)c2n1
→ 0.01	-0.1
- COC(=O)c1sccc1S(=O)(=O)N1CCN(c2ccc(F)cc2)CC1
→ 0.97	.
- Cc1ccc(C(C)C)c(OCCN2C(=O)C(=O)c3cc(C)ccc32)c1
→ 0.91	-0.05
- O=C(CCc1nnc2ccc(N3CCCCC3)nn12)N1CCN(C(=O)c2ccco2)CC1
→ -0.21	.
- Cc1noc(-c2cccnc2NC2CCCCC2)n1
→ 0.23	0.77
- Cc1c(N(C)C(=O)c2ccco2)c(=O)n(-c2ccccc2)n1C
→ 1.81	-0.46
- Cc1ccc(CSc2nc(C)cc(=O)[nH]2)cc1
→ 1.24	-1.28
- O=C(Cn1cnc2c(nc3n2CCCCC3)c1=O)N1CCCc2ccccc21
→ -0.23	.
- C=CCOc1ccc(/C(O)=C2/C(=O)C(=O)N(CCOC)C23C(=O)N(C)c2ccccc23)cc1C (stereo not drawn)
→ 3.99	-0.55
- CCOC(=O)c1cn(CC(=O)NC2CCCC2)c2nc(C)ccc2c1=O
→ 0	.
- COCCOC(=O)C1=C(C)NC2=C(C(=O)CC(c3ccccc3Cl)C2)C1c1ccc(C)o1 (stereo not drawn)
→ 2.84	-2.03
- CCc1nnc2c3ccccc3nc(N3CCN(c4ccccc4OC)CC3)n12
→ 2.55	.
- Cc1ccc2ccc3ccc(C)nc3c2n1
→ .	-0.83
- CC1(c2ccc(F)cc2)CC(=O)c2cc(O)ccc2O1 (stereo not drawn)
→ 1.99	-1.92
- O=C(NCCCN1CCCCC1)c1cc2c(s1)-c1ccc(Cl)cc1S(=O)(=O)C2
→ 1.77	-2.04
- CCOC(=O)c1cc(C)nn1S(=O)(=O)c1ccc(Cl)c(Cl)c1
→ .	-1.28
- COc1ccc(NC(=O)CC2(CC(=O)O)CCCC2)cc1OC
→ .	-1.75
- Cc1ccccc1NC(=O)NCc1ccco1
→ .	-0.44
- O=C(Nc1cc(C(F)(F)F)cc(C(F)(F)F)c1)Nc1cc2ccccc2s1
→ .	-0.72
- COC(=O)c1cc(S(=O)(=O)NCC2CCN(CCc3cccs3)CC2)c[nH]1
→ 1.15	.
- CC(C(=O)N1CCN(c2cccc(Cl)c2)CC1)n1sc2ccccc2c1=O (stereo not drawn)
→ 1.34	-1.45
- Cc1ccc(C(CNC(=O)c2oc3ccc(F)cc3c2C)N2CCCCC2)o1 (stereo not drawn)
→ 1.12	-2.3
- CCn1c2ccccc2c2cc(NS(=O)(=O)c3ccc4oc(=O)c5ncn(C)c5c4c3)ccc21
→ -0.9	.
- CC(=O)NC1=NN(C(C)=O)C(C)(c2ccc(Cl)s2)S1 (stereo not drawn)
→ .	-0.52
- Cc1ccccc1-c1nc2c3c(C)c(C)n(-c4ccccn4)c3ncn2n1
→ 0.3	-1.12
- O=C1CCN(Cc2ccccc2)C(=O)N1c1ccccc1
→ .	-2.1

Ordered by number of heavy atoms (highest first): some entries from above
Every second line gives: TAR Tat displ	CDC25B-CDK2 inh
- O=C(CCc1nnc2ccc(N3CCCCC3)nn12)N1CCN(C(=O)c2ccco2)CC1
→ -0.21	.
- Cc1c(N(C)C(=O)c2ccco2)c(=O)n(-c2ccccc2)n1C
→ 1.81	-0.46
- CC(C)(C)C(=O)NC(=O)Nc1ccccc1C(F)(F)F
→ .	-1.78

More entries.
Every second line gives: TAR Tat displ	CDC25B-CDK2 inh
- Cc1cc(C)c2oc(C(=O)NCC(c3ccc(C)o3)N3CCCC3)cc(=O)c2c1 (stereo not drawn)
→ -0.26	0.69
- COCCCNC(=O)CSc1nc(-c2ccco2)nc2cc(=O)[nH]n12
→ 0.49	.
- COc1ccc(Cn2c(CO)cnc2SCc2ccccc2Cl)cc1
→ 2.24	.
- CC(C)c1ccc(C2CC(=O)NC3=C2C(=O)CC(C)(C)C3)cc1 (stereo not drawn)
→ 0.51	-2.05
- Cc1noc(/C=C/c2ccccc2OCc2ccc(F)cc2)c1[N+](=O)[O-]
→ -2.15	0.21
- CCCCNC(=O)CN1CCN(c2nc3ccc([N+](=O)[O-])cc3s2)CC1
→ .	-1.66
- CC(=O)CC(c1ccccc1)c1c(O)c2ccccc2oc1=O (stereo not drawn)
→ 1.83	.
- CCS(=O)(=O)c1ncc(Cl)c(C(=O)Nc2c(C(=O)c3ccc(C)cc3)oc3ccccc23)n1
→ 2.26	0.75
- Cc1cc(C)cc(OCC(O)Cn2c(C)nc3ccccc32)c1 (stereo not drawn)
→ 0.39	-0.58
- CCc1ccc(S(=O)(=O)NCCc2csc3nc(-c4ccccc4)nn23)s1
→ 2.2	.
- O=S(=O)(c1ccccc1)N1CCSC1c1ccco1 (stereo not drawn)
→ 0.59	3.89
- O=C1CCc2cc(S(=O)(=O)NC3CCCCC3)cc3c2N1CC3
→ 2.31	.
- CCOC(=O)C1CCN(C(=O)C2CCCN2c2nnc(N3CCCC3=O)s2)CC1 (stereo not drawn)
→ 1.84	.
- COC(=O)Oc1cncc(C(=O)O)c1
→ 0.22	-2.16
- O=C(Cn1ncn2c(cc3ccccc32)c1=O)N1CCOCC1
→ 0.77	0.36
- Cc1cc(C)cc(NC(=O)C2CCCN2S(=O)(=O)c2ccc3c(c2)C(C)(C)C(=O)N3C)c1 (stereo not drawn)
→ 2.36	.
- CCCCCn1c(=O)c2c(nc3n2CCN3c2ccc(OC)cc2)n(C)c1=O
→ 1.65	-0.37
- Cc1cc(-c2ccc(C)c(S(=O)(=O)N3CCN(C4CCCCC4)CC3)c2)on1
→ -0.26	.
- CC1CCc2c(cnc3c(C(=O)N4CCCC4)cnn23)C1 (stereo not drawn)
→ 0.82	.
- COc1ccc(C2C3=C(CC(c4ccccc4)CC3=O)Nc3nnnn32)c(OC)c1 (stereo not drawn)
→ -0.14	.
- CCCC(CCC)C(=O)Nc1c(C(=O)N2CCN(c3ncccn3)CC2)oc2ccccc12
→ -0.93	0.38
- COc1ccc(OC)c(-n2nnc(-c3nc(-c4ccc(Cl)cc4)no3)c2N)c1
→ 1.5	.
- CCCNc1ncnc2c1cnn2-c1cccc(Cl)c1
→ 2.74	.
- Cc1nn(-c2ccc(N3CCCCC3)nn2)c(C)c1CCC(=O)NCC1CCCO1 (stereo not drawn)
→ -0.99	.
- CC(=O)N1CCN(c2nc(CC(C)C)c3c(c2C#N)CC(C)(C)OC3)CC1
→ 0.77	-0.63
- CCCCOC(=O)c1ccc(-c2ccccn2)s1
→ .	-2.22
- O=C(O)c1ccc(CN2C(=O)CCn3nccc32)cc1
→ 0.42	5.26
- CCOc1cc(C2NC(=O)NC(O)(C(F)(F)F)C2C(=O)c2ccccc2)ccc1O (stereo not drawn)
→ .	-1.99
- COC(=O)c1cc(C)nc2c1c(=O)nc(SCC(=O)N1CCCC1)n2C1CC1
→ 0.47	.
- CNc1nc(Oc2ccc(=O)n(C)n2)nc(N2CCOCC2)n1
→ -2.34	-0.41
- CS(=O)(=O)c1ncc(Cl)c(C(=O)N(Cc2ccc(F)cc2)C2CCS(=O)(=O)C2)n1 (stereo not drawn)
→ 1.23	0.27
- Fc1ccccc1Nc1ncc2c(n1)CCN(Cc1cc(Br)cs1)C2
→ -0.1	.
- CC1=C(O)C(=O)C(/C=N/NC(N)=O)C1 (stereo not drawn)
→ .	-0.32
- Cc1ccc(Nc2nc3ccccc3n3nnnc23)cc1C
→ 0.4	-0.83
- O/N=C/c1nn(-c2ccccc2)cc1Br
→ .	-0.34
- Cc1cccc(OCc2nn3c(-c4cccc(Cl)c4)nnc3s2)c1
→ 1.6	-0.06
- Clc1cccc(-n2ncc3c(NCc4ccccn4)ncnc32)c1
→ -1.18	.
- O=C(CSc1ncn[nH]1)c1ccc(Br)cc1
→ .	-1.06
- O=C(O)C1CCNCC1
→ .	0.08
- O=c1c2c(nc3nc(NCc4ccccc4Cl)[nH]n13)CCC2
→ 5.36	3.45

A run of entries taken from the entries so far, as a working copy:
Every second line gives: TAR Tat displ	CDC25B-CDK2 inh
- O=C(O)C1CCNCC1
→ .	0.08
- O=c1c2c(nc3nc(NCc4ccccc4Cl)[nH]n13)CCC2
→ 5.36	3.45

Of the compounds above, five contain bromine.
Every second line gives: TAR Tat displ	CDC25B-CDK2 inh
- O=C(COC(=O)c1cnccn1)c1ccc(Br)cc1
→ 1.66	0.57
- COCCOC(=O)c1c(C)oc2cc(Br)c(OCc3cccc(OC)c3)cc12
→ -1.06	-0.35
- Fc1ccccc1Nc1ncc2c(n1)CCN(Cc1cc(Br)cs1)C2
→ -0.1	.
- O/N=C/c1nn(-c2ccccc2)cc1Br
→ .	-0.34
- O=C(CSc1ncn[nH]1)c1ccc(Br)cc1
→ .	-1.06

(next part)
Every second line gives: TAR Tat displ	CDC25B-CDK2 inh
- CS/C(Nc1ccccc1)=C(/C#N)S(=O)(=O)c1ccc(C)cc1
→ .	-1.11
- CSC1=N/C(=C\c2cc(Br)ccc2OCC(=O)O)C(=O)S1
→ -0.18	0.35
- Cc1ccc(CN2C(=O)CSc3ccc(NC(=O)NCC4CCCO4)cc32)cc1 (stereo not drawn)
→ -0.03	-0.72
- COc1ccccc1N1CCN(S(=O)(=O)CC23CCC(CC2=O)C3(C)C)CC1 (stereo not drawn)
→ 1.1	-2.09
- CCCN1CCN(C(=O)c2cnc3c(C)cccn3c2=O)CC1
→ -3.79	.
- O=S(=O)(c1ccccc1)N1CCSC1c1ccc(Cl)cc1 (stereo not drawn)
→ -1.75	-1.94
- COc1ccc2c(c1)c(N1CCCC1=O)c(C(=O)NCc1ccco1)n2C
→ 1.02	.
- O=c1cc2nc(-c3ccccc3)nc(SCCOc3ccccc3Cl)n2[nH]1
→ 0.5	.
- CCOC(=O)N1CCN(C(=O)c2sc3nc(C)nc(N(CC)CC)c3c2C)CC1
→ 0.75	.
- COC(=O)C1CSC(c2ccc(Cl)cc2)=CC1N(C)C (stereo not drawn)
→ .	-1.2
